D2 potentiator – Beta-Arrestin HTS for Positive Allosteric Modulators of the Human D2 Dopamine Receptor: Potentiators; D(2) dopamine receptor (Homo sapiens), P14416; DiscoveRx D2 beta-arrestin cells, luminescence, 90 min; 100% = 57 uM dopamine signal; potentiation, % (concentration not given with the values); 0.23% of 360,000 active; AID 624464, 2012; active = potentiation of 50% or more; inconclusive = 30% to 50%; inactive = 30% or less;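 also: compound concentration not given in the record; tested on top of an EC20 dose of dopamine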
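PathHunter beta-arrestin assay in DiscoveRx D2 cells. Compounds were added with an EC20 of dopamine (50 nM final) for 90 min at 37 deg C. Luminescence was read 1 h after detection reagent, with 57 uM dopamine as the EC100 control.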
D2 ag – Beta-Arrestin HTS for Positive Allosteric Modulators of the Human D2 Dopamine Receptor: Agonists; D(2) dopamine receptor (Homo sapiens), P14416; DiscoveRx PathHunter D2 beta-arrestin, luminescence, 90 min; 100% = 57 uM dopamine signal; activation, % (concentration not given with the values); 0.084% of 360,000 active; in the data active = activation above about 40%; inconclusive = about 15% to 40%; inactive = below about 15%; also: compound concentration not given in the record; the text of the record calls up to 30% inactive
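DiscoveRx PathHunter D2 beta-arrestin cells (2,100/well) attached overnight, then compound-stimulated 90 min at 37 C in HBSS/10 mM HEPES/0.1% Tween-20 buffer; beta-galactosidase complementation read by luminescence after 1 h at ambient temperature. Dopamine 57 uM final (EC100) as control.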
gsp agonist – qHTS for Agonist of gsp, the Etiologic Mutation Responsible for Fibrous Dysplasia/McCune-Albright Syndrome: qHTS; Potency, µM (doses to about 76.9 µM), without a hit: at the top dose activation (cAMP increase), hits mostly activators; 0.13% of 340,000 active; AID 624287, 2012; gsp mutant cells, cAMP HTRF, 30 min; control for the full effect not named in the record; active = well fitted activation curve with a large enough effect; inconclusive = small, poorly fitted or top-dose-only effect, or another doubt; inactive = no such curve, though single readings can be large or run the other way; cell line not stated here;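 also: phosphodiesterase inhibitor Ro 20-1724 added with compounds to block cAMP breakdown; potency is read from the fitted curve at half-maximal effect; nearly all actives have a fitted effect of over 60% in size; about a fifth of the inactives were tested at one dose only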
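Cells stably selected in G418 were plated at 2000/well, grown 16-24 hr, then given compounds in DMSO with the PDE inhibitor […] (300 uM solution added) for 30 min at 37C; cAMP was read by HTRF.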
gsp antagonist – qHTS for Antagonists of gsp, the Etiologic Mutation Responsible for Fibrous Dysplasia/McCune-Albright Syndrome: qHTS. gsp-mutant cells, cAMP HTRF, 30 min; control for the full effect not named in the record. Potency, µM (highest dose often 76.9 µM), inactives show at the highest dose activity change, negative = inhibition, usual class: inhibitors. 0.4% of 340,000 active. AID 624288, 2012; active = falling curve of any shape with a large fitted effect; inconclusive = falling curve, mostly with a smaller effect; inactive = flat or rising curve; cell line not stated here;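 also: intracellular cAMP measured with PDE inhibitor Ro 20-1724 present during compound exposure; potency is read from the fitted curve at half-maximal effect; % is scaled to controls: 0 for no effect and ±100 for the full control effect; nearly all actives have a fitted effect of over 65% in size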
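G418-selected cells were plated in DMEM/10% FBS for 16-24 h at 37C, then treated with compounds plus the PDE inhibitor […] (300 uM solution added) for 30 min at 37C. Intracellular cAMP was measured by HTRF after 30 min lysis at room temperature.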
CtBP-E1A blk – qHTS Assay for Inhibitors of the CtBP/E1A Interaction | activity change, % (concentration not given with the values) | CtBP / adenovirus E1A interaction (AlphaScreen) | AlphaScreen GST-E1A/His-CtBP binding, 1536-well; active compounds read low; control for the full effect not named in the record | AID 651724, 2012 | 0.49% of 340,000 active; in the data active means activity change below about -65%; inconclusive means about -30% to -65%; inactive means above about -30%; also: % is scaled to controls: 0 for no effect and ±100 for the full control effect
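Protein mix (5X: 125 nM each GST-E1A, His-CtBP) was incubated with pinned compound 2 h at 37 deg C in dark, in 50 mM Tris pH 8.0 buffer with 300 mM NaCl. Glutathione donor and nickel acceptor beads followed; AlphaScreen signal read after 1 h.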
Six1-Eya2 inh – qHTS Assay for Inhibitors of the Six1/Eya2 Interaction; Homeobox protein SIX1 (Homo sapiens) + Protein phosphatase EYA2 (Homo sapiens), …; AlphaScreen GST-Six1/His-Eya2 binding, biochemical; active compounds read low; control for the full effect not named in the record; activity change, % (no concentration beside the values); 0.56% of 360,000 active; in the data active = activity change below about -65%; inconclusive = about -30% to -65%; inactive = above about -30%; also: % is scaled to controls: 0 for no effect and ±100 for the full control effect
Target sequence (O00167 whole entry, looked up): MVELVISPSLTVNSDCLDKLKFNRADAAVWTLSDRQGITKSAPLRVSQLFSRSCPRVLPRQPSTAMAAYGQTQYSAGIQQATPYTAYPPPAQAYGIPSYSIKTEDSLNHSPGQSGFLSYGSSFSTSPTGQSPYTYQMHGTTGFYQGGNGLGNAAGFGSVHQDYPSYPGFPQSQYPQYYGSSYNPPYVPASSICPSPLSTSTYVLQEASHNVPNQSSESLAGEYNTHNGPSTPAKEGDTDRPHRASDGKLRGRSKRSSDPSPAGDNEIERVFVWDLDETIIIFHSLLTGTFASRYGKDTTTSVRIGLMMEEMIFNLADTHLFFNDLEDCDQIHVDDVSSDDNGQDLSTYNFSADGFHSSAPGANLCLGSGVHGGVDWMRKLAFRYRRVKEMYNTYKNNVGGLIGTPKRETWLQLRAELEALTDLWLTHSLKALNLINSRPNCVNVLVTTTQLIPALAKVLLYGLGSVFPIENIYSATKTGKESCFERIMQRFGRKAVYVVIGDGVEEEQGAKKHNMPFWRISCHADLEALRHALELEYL
Target sequence (Q15475 whole entry, looked up): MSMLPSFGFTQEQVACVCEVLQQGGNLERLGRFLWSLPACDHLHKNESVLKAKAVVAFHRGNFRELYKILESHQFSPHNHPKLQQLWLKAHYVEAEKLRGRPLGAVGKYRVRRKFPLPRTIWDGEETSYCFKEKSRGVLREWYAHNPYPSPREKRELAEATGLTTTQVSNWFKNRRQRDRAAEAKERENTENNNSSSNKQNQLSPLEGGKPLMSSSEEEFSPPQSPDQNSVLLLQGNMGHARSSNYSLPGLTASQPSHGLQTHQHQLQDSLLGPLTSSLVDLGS
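Homogeneous AlphaScreen proximity assay pairing GST-Six1 with His-tagged Eya2 (added as 5X mix: 250 nM and 500 nM) in 50 mM Tris pH 8.0, 300 mM NaCl, 1 mM TCEP. Glutathione donor and nickel acceptor beads; 1 h, 37 °C, dark.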
An asterisk follows results filed as active; u = inconclusive; x = not tested or not shown; [ ] = dose if it differs, or a comment.

#	smiles	D2 potentiator	D2 ag	gsp agonist
1	O=C1CCn2nc(-c3ccc(Cl)cc3)cc2N1	0	0.0	-44%[inhibitor]
2	CCOC(=O)c1c(N)sc(C(=O)N2CCCC(C(N)=O)C2)c1C (stereo not drawn)	-18	-3.9	0%
3	CC(=O)c1ccc(NC(=O)COC(=O)CCc2ccc(S(=O)(=O)N3CCOCC3)cc2)cc1	-5	-1.7	0%[15.4 µM]
4	Cc1cc(NC(=O)COC(=O)c2cc3c(s2)CCC(C)C3)no1 (stereo not drawn)	-10	-1.2	-1%
5	Cc1ccc(C(=O)OCC(=O)Nc2ncc(Cl)cc2Cl)cc1NC(=O)c1ccco1	-11	-4.0	u
6	O=C(COC(=O)c1ccc(Br)c(S(=O)(=O)N2CCOCC2)c1)NC1CC1	-5	-1.8	u
7	Cc1ccc(S(=O)(=O)CC(=O)N2CCN(c3ccc(F)cc3)CC2)cc1	-4	-3.6	-8%[15.4 µM]
8	CC1C(=O)N2CCCc3cc(NC(=O)C(=O)NCCc4ccccc4)cc1c32 (stereo not drawn)	0	-4.3	-5%[15.4 µM]
9	COCCN(C(=O)Cc1cccs1)C(C(=O)NCc1ccc(OC)cc1)c1ccc(OC)cc1 (stereo not drawn)	-24	-2.0	0%
10	Cc1cccc(C)c1NC(=S)N1CCC(N(C)CC2CCCO2)CC1 (stereo not drawn)	-8	-2.0	19%

#	gsp antagonist	CtBP-E1A blk	Six1-Eya2 inh
1	5%	-2	2
2	1%	6	0
3	1%	0	2
4	-2%	7	-1
5	-22%	-5	0
6	-8%	5	0
7	5%	1	-5
8	u	0	2
9	-3%	6	0
10	10%	10	-1

Remaining list, next part
#	smiles	D2 potentiator	D2 ag	gsp agonist
11	COc1ccc(CC(=O)Nc2ccc(C(=O)NC(C)(C)C)cc2)cc1	-16	-5.1	-11%
12	CCN(c1ccccc1)S(=O)(=O)c1ccc2[nH]cc(C(=O)N3CCOCC3)c(=O)c2c1	-5	0.7	11%
13	CC(=O)N=c1c(C#N)cc2c(=O)n3cccc(C)c3nc2n1Cc1ccco1	-11	-4.3	9%
14	Cc1cc(C)c(C)c(S(=O)(=O)Nc2ccc(C(=O)N3CCCC3)cc2)c1C	-10	-0.4	u
15	CCCCNC(=O)C1(C)CCCCN1C(=O)c1cc(-c2ccccc2)cs1 (stereo not drawn)	-13	-10	x
16	O=C(NCc1ccccn1)C(=O)NCC1OCCCN1S(=O)(=O)c1cc(F)ccc1F (stereo not drawn)	-19	3.5	23%
17	CC1CC(C)(C)NC(=S)N1CCCC(=O)Nc1ccc(Br)cc1 (stereo not drawn)	-10	-3.9	-14%[15.4 µM]
18	Cc1c(C(N)=O)sc2ncn(CC(=O)N(C)C3CCCCC3)c(=O)c12	-5	-2.4	-3%[15.4 µM]
19	O=C(c1cccnc1)N1CCN(C(=O)c2cccc(Cl)c2)CC1	-2	0.6	-2%[15.4 µM]
20	CC1(Oc2cccc(C#N)c2)CCN(Cc2ccccc2OC(F)F)C1 (stereo not drawn)	-17	-3.6	x

#	gsp antagonist	CtBP-E1A blk	Six1-Eya2 inh
11	-15%	0	0
12	7%	-5	5
13	-18%	x	3
14	-20%	9	-5
15	x	6	11
16	5%	-4	6
17	-4%	-13	2
18	-30%	0	-2
19	1%	2	-5
20	x	13	2

Carrying on:
#	smiles	D2 potentiator	D2 ag	gsp agonist
21	Cc1nnc(SCC(=O)N2CCN(S(=O)(=O)c3ccccc3)CC2)s1	-15	-4.2	-4%[15.4 µM]
22	Cc1ccc(C(=O)COC(=O)C(C)N2C(=O)C3C4CCC(C4)C3C2=O)cc1 (stereo not drawn)	-7	2.0	2%[15.4 µM]
23	O=C(/C=C/c1ccccc1)Nc1nnc(SCC(=O)c2ccc3ccccc3c2)s1	2	-2.8	12%[15.4 µM]
24	OC(Cn1cccn1)c1ccccc1 (stereo not drawn)	-13	1.0	21%
25	CC1(C(=O)NCC2CCOCC2)Cc2c(-c3cccc(C(F)(F)F)c3)ccnc2O1 (stereo not drawn)	-4	-2.7	x
26	CC1(C)CC(=O)C=C(Nc2ccc(C(=O)O)cc2)C1	12	-1.3	-23%
27	CCCC(C)C(=O)OCC(=O)Nc1c(Br)cc(C)cc1Br (stereo not drawn)	-10	3.0	0%
28	Nn1c(SCC(=O)NCCc2ccc(S(N)(=O)=O)cc2)nnc1C1CCCCC1	0	7.0	11%
29	COc1cc(C2C(C#N)=C(N)Oc3cc(N(C)C)ccc32)cc2c1OCO2 (stereo not drawn)	9	-1.6	8%
30	O=c1[nH]c2ccccc2c(O)c1-c1ccccc1[N+](=O)[O-]	-7	1.3	0%[15.4 µM]

#	gsp antagonist	CtBP-E1A blk	Six1-Eya2 inh
21	8%	2	-4
22	4%	6	11
23	1%	7	16
24	10%	8	7
25	x	9	2
26	2%	4	0
27	11%	12	6
28	11%	1	-1
29	34%[activator]	-5	-21
30	8%	x	3

Remaining list, next part.
#	smiles	D2 potentiator	D2 ag	gsp agonist
31	C=CC[C@@H](CC(=O)OC(C)(C)C)C(=O)OC[C@@H]1CCCN1C(=O)[C@@H](CC=C)CC(=O)N[C@@H](CO)Cc1ccccc1	-2	-1.7	u
32	CC(=O)/C(C#N)=C1\NC(=O)C(Cc2ccc(C)c(C)c2)S1 (stereo not drawn)	-14	1.9	7%
33	CC1=C(CC(=O)c2ccc(Cl)cc2)C(=O)c2ccccc2C1=O	55*	9.4	-16%
34	CCOC(=O)c1[nH]c(C)c(C(=O)N2CCN(c3ccccc3)CC2)c1C	-18	-2.9	7%
35	COc1cccc(C(C)(O)c2nc(-c3ccc4c(c3)OCO4)cs2)c1 (stereo not drawn)	0	-5.7	x
36	Cc1ccc(C)c(N(C(=O)c2csnn2)C(C(=O)NC2CCCCC2)c2ccncc2)c1 (stereo not drawn)	3	-4.8	2%[15.4 µM]
37	Cc1cc(C)c2[nH]c(=O)c(CN(CC3CCCO3)C(=O)c3cnccn3)cc2c1 (stereo not drawn)	12	0.6	1%
38	Cc1ccc(-c2sc(C(=O)NN)c(C)c2C#N)cc1	-6	-3.3	1%[15.4 µM]
39	Cc1ccc(C)c(SCC(=O)NCC(c2ccco2)N2CCCCC2)c1 (stereo not drawn)	-19	-3.4	9%
40	CCS(=O)(=O)Nc1ccccc1C(N)=O	-3	-2.3	11%[15.4 µM]

#	gsp antagonist	CtBP-E1A blk	Six1-Eya2 inh
31	-3%	-1	2
32	u	-6	-3
33	-14%	u	u
34	-4%	-5	-6
35	x	1	-5
36	x	-15	-1
37	-7%	5	0
38	-3%	9	3
39	8%	9	-10
40	x	-12	5

Record cards, as listed above. Order of screens: D2 potentiator, D2 ag, gsp agonist, gsp antagonist, CtBP-E1A blk, Six1-Eya2 inh
Entry for CCCC(C)C(=O)OCC(=O)Nc1c(Br)cc(C)cc1Br (stereo not drawn) : -10, 3.0, 0%, 11%, 12, 6
Entry for CC1=C(CC(=O)c2ccc(Cl)cc2)C(=O)c2ccccc2C1=O : 55*, 9.4, -16%, -14%, u, u
Entry for CCCCNC(=O)C1(C)CCCCN1C(=O)c1cc(-c2ccccc2)cs1 (stereo not drawn) : -13, -10, x, x, 6, 11

Next part.
#	smiles	D2 potentiator	D2 ag	gsp agonist
41	CS(=O)(=O)c1cnc(-c2ccccc2)nc1Oc1ccc(Cl)cc1	-5	0.7	33%
42	Cc1cccc(NC2=C(Cl)C(=O)OC2OC(C)C)c1 (stereo not drawn)	-8	-6.4	17%
43	COc1ccc(OC)c(C2=NO[C@@H]3C(=O)N(c4cc(Cl)ccc4OC)C(=O)[C@H]23)c1	-9	-4.0	8%
44	CCC1CCCCN1S(=O)(=O)c1ccc(NC(=O)C2CCN(C(=O)c3ccco3)CC2)cc1 (stereo not drawn)	-12	-3.6	11%[15.4 µM]
45	O=S(=O)(NCCC1=CCCCC1)c1ccccc1Cl	-3	-2.1	u
46	CC1(C)NC(=O)N(CC(O)CN2CCOCC2)C1=O (stereo not drawn)	-7	-1.5	-8%
47	O=C(c1cc(-c2ccco2)on1)N1CCN(C(c2ccccc2)c2ccccc2)CC1	-8	-5.4	3%
48	CC(C)(C)S(=O)N1Cc2cn(Cc3ccccc3)c(=O)cc2[C@@H]1CCO (stereo partly drawn)	x	-2.3	x
49	Cc1ccc(S(=O)(=O)NCc2ccc(C(=O)N(C)CCC#N)cc2)cc1	-4	0.7	0%
50	Nc1nnc(Cc2ccc(Cl)cc2Cl)s1	-1	-0.1	4%

#	gsp antagonist	CtBP-E1A blk	Six1-Eya2 inh
41	5%	1	2
42	8%	x	6
43	3%	-4	2
44	-30%	0	-28
45	4%	x	9
46	3%	-18	2
47	-8%	17	4
48	9%	-23	9
49	-1%	0	9
50	-1%	3	-1

Other results:
#	smiles	D2 potentiator	D2 ag	gsp agonist
51	CC(C)(CO)NC(=S)NCc1ccco1	-3	2.7	7%
52	O=C(Nc1cccc2ccccc12)c1csc([C@@H]2O[C@H](CO)[C@H](O)[C@H](O)[C@H]2O)n1	-8	-7.6	x
53	Oc1ccc(/C=N/NC(=S)NCCN2CCOCC2)c(O)c1	-12	4.8	-24%
54	O=C(Nc1nnc(-c2ccc(F)cc2)o1)c1ccco1	-8	-1.7	-46%[inhibitor]
55	COc1ccc(/C=C2/SC(=O)N(CCNC(=O)C3CCCN3C(=O)c3cccs3)C2=O)cc1 (stereo not drawn)	-2	-0.2	-9%[15.4 µM]
56	CCCC(NC(=O)Cc1c(C)c2cc3c(C)c(C)oc3c(C)c2oc1=O)C(=O)N[C@@H](Cc1ccccc1)C(=O)O (stereo partly drawn)	2	1.3	-71%[inhibitor]
57	O=[N+]([O-])c1ccccc1/C=N/Nc1nc(N2CCCC2)nc(N2CCCC2)n1	-4	-1.9	-5%[15.4 µM]
58	CCC1C(C#N)=C(N)OC2=C1C(=O)CC(C)(C)C2 (stereo not drawn)	0	-2.7	-30%[inhibitor]
59	CC1CC(C(F)(F)F)n2ncc(C(=O)O)c2N1 (stereo not drawn)	-4	-3.0	18%

#	gsp antagonist	CtBP-E1A blk	Six1-Eya2 inh
51	10%	0	-6
52	x	-5	-3
53	3%	x	-90*
54	-7%	-28	-22
55	u	-4	-1
56	2%	1	-8
57	-9%	-3	-1
58	2%	7	5
59	2%	4	8
